Sa helicase inh – blocks Staphylococcus aureus DNA helicase; purified S. aureus helicase, fluorescence unwinding assay; about half of the hits fall short of the stated cut; inhibition, %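 (tested at about 80 µM)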; 120,000 tested, 0.05% active; AID 485395;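 active = both duplicates at 50% or more, or one of them with a favoured structure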;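 also: 0% = mean of negative control wells and 100% = mean of positive control wells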
MgrA DNA FP – S. aureus MgrA-DNA binding modulation | fluorescence polarization | inhibition, %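 (about 10 µg/mL by stock and volumes)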 | AID 602314 | 84,000 tested, 0.13% active;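 active = above 50% in either of two replicates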;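 also: 0% = protein plus DNA without compound and 100% = DNA alone without protein; higher means less MgrA bound to DNA so lower polarization; one replicate is shown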
Numbers without * were called inactive; x = not tested or not shown; & = joins results of further samples.

The first two compounds, to show the layout:
cpd	Sa helicase inh	MgrA DNA FP	canonical_smiles
1	3.0	x	O=c1[nH]nc(-c2ccco2)o1
2	-17.0	x	O=C1c2nc3cc(-c4ccccc4)[nH]n3c(=O)c2CN1Cc1ccco1

The list itself, previewed entries included:
cpd	Sa helicase inh	MgrA DNA FP	canonical_smiles
1	3.0	x	O=c1[nH]nc(-c2ccco2)o1
2	-17.0	x	O=C1c2nc3cc(-c4ccccc4)[nH]n3c(=O)c2CN1Cc1ccco1
3	x	-2.7	COc1ccc(OC)c(Sc2ncccc2C(=O)O)c1
4	x	-1.0	COc1ccc(-c2nc(-c3ccc(Br)cc3)cs2)cc1
5	-7.0	3.1	CCN(CC)C(=O)CSc1nnc(COc2ccc(Br)cc2)o1
6	-4.0	x	CC1CCCC(NS(=O)(=O)c2ccc3c(c2)OCCO3)C1C (stereo unspecified)
7	6.0	10.8	Cc1c(C(=O)Nc2ccc(Cl)cc2)sc(N)c1C(N)=O
8	-10.0	-0.4	Cc1ccc(C)n1-c1cccc(C(F)(F)F)c1
9	x	-2.5	COC(=O)c1sccc1Oc1ccc(C(F)(F)F)cc1NC(=O)c1ccc(Cl)cc1
10	-8.0	x	Cc1cc(C)n(CCCNC(=O)c2ccc(S(=O)(=O)N3CCCCCC3)cc2)n1
11	-4.0	x	CCCN1C(=O)c2[nH]nc(-c3ccccc3)c2C1c1ccccn1 (stereo unspecified)
12	x	-2.5	O=c1oc2ccc(Br)cc2cc1-c1ccc([N+](=O)[O-])cc1
13	18.0	x	Cc1cc(C(=O)CSc2nnc(Cc3cccs3)n2CCc2ccccc2)c(C)n1CC1CCCO1 (stereo unspecified)
14	1.0	0.5	COC(=O)Nc1ccc(Br)cn1
15	-10.0	x	CN(C)C(CNC(=O)c1cccc(C#N)c1)c1ccco1 (stereo unspecified)
16	14.0	-0.2	COc1ccc(C(=O)n2nc(-c3cccnc3)nc2N)cc1
17	5.0	x	O=C(CSc1ccccn1)Nc1ccc(O)c(C(=O)O)c1
18	-12.0	-0.9	O=C1NC(c2cccc(Oc3ccccc3)c2)Oc2ccccc21 (stereo unspecified)
19	-9.0	x	O=c1c2ccccc2nnn1CSc1nncs1
20	-15.0	x	O=C(CC12CC3CC(CC(C3)C1)C2)Nc1ccccc1N1CCOCC1
21	-10.0	x	Cc1cc(C)n2c(C#N)c(C#N)nc2n1
22	-24.0	0.4	O=S(=O)(Nc1ccccc1O)c1ccccc1
23	9.0	x	COC(=O)c1c(C)[nH]c(C(=O)CN(C)Cc2cccc(OC)c2)c1C
24	-1.0	-3.7	Cc1cccc(NC(=O)c2ncoc2-c2ccccc2Cl)c1C#N
25	x	2.5	S=c1[nH]nc(CSCCOc2ccc(Cl)cc2Cl)o1
26	1.0	x	O=C(O)C1CCCN1S(=O)(=O)c1ccccc1 (stereo unspecified)
27	18.0	x	CSc1nc(-c2ccccc2)cn1-c1ccc(NC(C)=O)cc1
28	14.0	x	COC(=O)C1=C(C)NC(C)=C(C(=O)OC)C1C(=O)OC(C)C(=O)Nc1ccc(C)cc1 (stereo unspecified)
29	x	2.7	COc1ccccc1Oc1ccc(C(F)(F)F)cc1[N+](=O)[O-]
30	16.0	x	Cn1c(=O)n2n(c1=O)C1C=CC2C1

An excerpt from above in order of the MgrA DNA FP value, rising.
entry | SMILES | MgrA DNA FP
9 | COC(=O)c1sccc1Oc1ccc(C(F)(F)F)cc1NC(=O)c1ccc(Cl)cc1 | -2.5
22 | O=S(=O)(Nc1ccccc1O)c1ccccc1 | 0.4
14 | COC(=O)Nc1ccc(Br)cn1 | 0.5
29 | COc1ccccc1Oc1ccc(C(F)(F)F)cc1[N+](=O)[O-] | 2.7
5 | CCN(CC)C(=O)CSc1nnc(COc2ccc(Br)cc2)o1 | 3.1

Next compounds:
cpd	Sa helicase inh	MgrA DNA FP	canonical_smiles
31	x	2.7	O=[N+]([O-])c1ccc(N2CCCCC2)cc1
32	6.0	x	O=C(CCSc1ccc2ccccc2n1)NCc1ccc2c(c1)OCO2
33	-1.0	1.3	O=C(C(NS(=O)(=O)c1ccc(Br)s1)c1ccccc1)N1CCOCC1 (stereo unspecified)
34	-16.0	x	O=C(CCCn1c(=O)c2ccc(Cl)cc2n(CC(=O)c2cccc(Br)c2)c1=O)NCc1ccco1
35	-14.0	x	Cc1nc(SCC(=O)N(C)C2(C#N)CCCCC2)c2ccccc2n1
36	9.0	4.8	COc1ccc2[nH]c3c(=O)n(CCCCC(=O)Nc4ccccc4)c(=S)[nH]c3c2c1
37	7.0	-1.6	O=C(CCSCc1ccccc1)NCc1ccco1
38	-7.0	x	O=C(Cn1c(=O)n(-c2ccccc2)c(=O)c2c3c(sc21)CCC3)NCc1ccco1
39	11.0	3.7	O=C(Cc1cccc2ccccc12)NN1C(=O)C2C3C=CC(C3)C2C1=O (stereo unspecified)
40	x	-0.3	Cc1cccc(NC(=S)Nc2c(C(C)C)cccc2C(C)C)c1
41	15.0	5.1	CC1(C)CC(=O)C=C(NN2CCOCC2)C1
42	8.0	x	COc1cccc2sc(NC(C)=O)nc12
43	-6.0	x	CCc1nc2ccccc2c(C(=O)OCC(=O)N(C)C)c1C
44	x	0.4	COc1ccc(C(=O)c2c(NC(C)=O)sc3c2CCN(C(=O)OC(C)(C)C)C3)cc1
45	x	-1.6	N#Cc1ccc(OC(=O)c2ccc(Cl)cc2Cl)cc1
46	-4.0	x	COc1ccccc1Nc1ccc(S(=O)(=O)N2CCCC2)cn1
47	8.0	x	CC(=O)Oc1cccc(Nc2ncnc3ccccc23)c1
48	x	2.8	Oc1cc(O)c2c(c1)O[C@H](c1ccc(O)c(O)c1)[C@H](O)C2
49	-16.0	x	CC1(C)CC(N2COc3c(cc(Cl)c4cccnc34)C2)CC(C)(C)N1
50	7.0	0.7	COc1ccc(/C=C/C(=O)C2C(=O)COC2=O)cc1OC (stereo unspecified)
51	-13.0	-1.0	C(=Nc1ccccc1)c1nc(-c2ccccc2)n2ccccc12
52	4.0	x	Cc1cc(NC(=O)c2cc3c(s2)-c2ccccc2S(=O)(=O)C3)no1
53	-10.0	x	COc1cc(OC)c(OC)cc1CN1CCN(Cc2ccc(F)cc2)CC1
54	-23.0	x	CCn1c2ccccc2c2nnc(NCCc3ccccc3)nc21
55	x	-0.8	Cc1ccc(S(=O)(=O)N(c2cc(C)nn2C)S(=O)(=O)c2ccc(C)cc2)cc1
56	0.0	1.4	CC(=O)Oc1ccc(C(=O)Nc2ccccc2NC(=O)c2ccc(OC(C)=O)cc2)cc1
57	4.0	-1.9	Cc1c(C(=O)NCc2ccccc2)sc2nc3n(c(=O)c12)CCCC3
58	-2.0	0.8	Cc1cc(N(C(=O)Cn2nnc3ccccc32)C(C(=O)NCC2CCCO2)c2ccc(F)cc2)ccc1-n1cnnn1 (stereo unspecified)
59	-29.0	x	CN(C(=O)C1CCN(c2ncnc3c2nc2n3CCCCC2)CC1)c1ccccc1
60	5.0	3.8	COc1ccc(C(=O)NC(=S)N2CC(C)OC(C)C2)cc1 (stereo unspecified)

The list goes on:
cpd	Sa helicase inh	MgrA DNA FP	canonical_smiles
61	13.0	x	O=C(COc1ccc(C(F)(F)F)cn1)Nc1ccc(C(F)(F)F)cc1
62	-6.0	x	N#CCCn1c(SCC(=O)N2CCCC2c2ccc3c(c2)OCCCO3)nc2ccccc21 (stereo unspecified)
63	7.0	-1.4	Cc1cc(C)nc(/N=C(/NC(=O)Cc2ccccc2)N2CCC(C(N)=O)CC2)n1
64	-32.0	x	Cc1ccc(S(=O)(=O)NCc2cccs2)cc1
65	-20.0	x	CCOC(=O)c1ccccc1NC(=O)CSc1nc(N)cc(=O)[nH]1
66	-6.0	-3.1	COC(=O)C(C)NC(=O)c1cccnc1Cl (stereo unspecified)
67	6.0	x	O=C(COc1cccc[n+]1[O-])N1CCc2ccccc21
68	10.0	16.6	O=C1C2=C(Nc3ccccc3SC2c2ccccc2F)c2ccccc21 (stereo unspecified)
69	-13.0	1.0	Cc1c(C(C)NC(=O)COc2ccc(Br)cc2Cl)cnn1C (stereo unspecified)
70	x	0.6	CSc1n[nH]c(NS(=O)(=O)c2ccc(Cl)cc2)c1-c1ccccn1
71	0.0	-2.2	COc1cc(C)c(C(C)C)cc1S(=O)(=O)N1CCN(c2cccc(Cl)c2)CC1
72	3.0	x	CCN1C(=O)/C(=C/N(C(C)=O)c2ccccc2)OC1=S
73	3.0	1.3	O=C(CSc1ncnc2ccccc12)NC1CCCCC1
74	8.0	-2.0	CC(NC(=O)CC(c1ccccc1)c1ccccc1)c1ccccc1 (stereo unspecified)
75	15.0	0.6	CC(C)N(Cc1ccccc1)S(=O)(=O)c1ccc(-n2cccn2)cc1
76	18.0	8.7	COC(=O)c1sc(N)c(C#N)c1C
77	-2.0	x	N/C(=N\O)C12CC3CC(CC(C3)C1)C2
78	14.0	-0.5	Cc1ccc(C)c(S(=O)(=O)NCC(=O)Nc2nsc(-c3ccccc3)n2)c1
79	x	-3.3	COc1ccc(CCNC(=O)c2c(-c3ccccc3)noc2C)cc1OC
80	-4.0	1.4	CC(=O)N1C(Nc2ccc(Cl)cc2)CCN1c1ccccc1 (stereo unspecified)
81	-14.0	x	Cc1cccc(-n2c3c(c(=O)[nH]c2=S)CN(CCc2ccccc2)CN3)c1
82	5.0	6.2	COC(=O)/C=C1\SC(=NC(=O)c2ccc(OC)cc2)NC1=O
83	-11.0	2.0	CCC(=O)Nc1cccc2cccnc12
84	-1.0	0.5	O=C(Nc1ccc(Cl)cc1)c1cnn2c(C(F)F)cc(C3CC3)nc12
85	5.0	x	Cn1cc(NC(=O)NCc2ccc3c(c2)OCO3)c2ccccc21
86	10.0	x	COc1ccc(OCc2nc3c4c(C)c(C)oc4ncn3n2)cc1
87	-14.0	x	O=C(Cc1cn2ccsc2n1)N/N=C/c1c(Cl)cccc1Cl
88	15.0	x	CCNCC(=O)Nc1ccccc1C(F)(F)F
89	-2.0	0.6	CS(=O)(=O)N1CCN(CCc2ccccc2)CC1
90	x	-1.5	O=C(CCSc1ccc(C(F)(F)F)cc1)c1ccco1

(more compounds)
cpd	Sa helicase inh	MgrA DNA FP	canonical_smiles
91	x	-2.0	O=C(NCc1ccsc1)c1ccc2c(c1)CCO2
92	0.0	-0.8	CN1CCCC(OC(=O)c2cc(F)c(F)c(F)c2F)C1 (stereo unspecified)
93	12.0	1.3	CC1CCCCN1S(=O)(=O)c1ccc(NC(=O)COc2ccc(F)cc2)cc1 (stereo unspecified)
94	9.0	x	Cc1ccccc1OCc1nc2ccccc2n1C
95	8.0	x	O=C1NC(c2ccc(Cl)cc2)c2c1oc1ccccc1c2=O (stereo unspecified)
96	4.0	1.5	N#Cc1ccc(NC(=O)/C=C/c2ccccc2)cc1
97	-3.0	-24.7	CC1CCN(CC(=O)Nc2ccc(F)cc2)CC1
98	x	-0.5	COc1ccccc1C1CCN(C(=O)c2cnn(-c3ccccc3)c2C)CC1
99	15.0	x	Cc1nnc(SCc2cc(=O)c3c(=O)n(-c4ccccc4)[nH]c3[nH]2)s1
100	7.0	x	CCOc1cc(-n2c(C)ccc2C)c(OCC)cc1N1CCOCC1
101	-12.0	7.3	Cc1cc2nc(SCc3ccc(F)cc3)[nH]c2cc1C
102	-13.0	x	O=C(c1cccc(S(=O)(=O)N2CCCCC2)c1)N1CCN(c2ccccc2)CC1
103	15.0	x	O=C(NC1CCSC1=O)c1ccccc1 (stereo unspecified)
104	-6.0	0.4	O=C1N(CN(CCc2ccccc2)Cc2ccccc2)c2ccccc2C12OCCCO2
105	x	-3.2	Cc1nc2ccc(NC(=O)c3ccccc3C)cc2o1
106	8.0	x	Cc1cc(C)n(C(=O)c2ccc(NC(=O)C3CC3)cc2)n1
107	16.0	x	Cc1ccc(C(=O)n2cnc3ccccc32)cc1
108	-5.0	x	CC(N)(C(=O)O)c1cccc(OCc2cccc(Cl)c2)c1 (stereo unspecified)
109	x	0.6	COc1cccc(NC(=S)N2CC(C)OC(C)C2)c1 (stereo unspecified)
110	x	-1.5	Ic1ccc(I)s1
111	-21.0	x	Cn1c(=O)n(C)c2cc3c(cc21)[nH]c(=O)c(=O)n3Cc1ccccc1
112	-6.0	x	CCOc1ccc(OCC(O)CNC2CC(C)(C)NC(C)(C)C2)cc1 (stereo unspecified)
113	11.0	x	CCc1nnc(NC(=O)C2CCCN2S(=O)(=O)c2ccccc2)s1 (stereo unspecified)
114	-3.0	x	COC(=O)C1Cc2ccccc2CN1Cc1c(O)ccc2ccccc12 (stereo unspecified)
115	x	3.0&2.4	Nc1ccc(S(=O)(=O)Nc2nccs2)cc1
116	7.0	x	CCN(CC)S(=O)(=O)c1cccc(-c2nc(=S)[nH][nH]2)c1
117	3.0	x	O=C(c1c[nH]c(=O)n(-c2ccccc2)c1=O)N1CCc2ccccc21
118	19.0	4.7	COc1ccc2c(c1)CCC1C2=NN(C(C)=O)C1c1ccccc1F (stereo unspecified)
119	-2.0	x	CC(C)(C)C(=O)/C(C#N)=c1\s/c(=C\c2ccncc2)c(=O)n1CCCN1CCOCC1
120	-7.0	-2.9	O=S(=O)(c1ccc(Br)cc1)N1CCNCC1

Complete entries as entered above.
Results for CCOc1cc(-n2c(C)ccc2C)c(OCC)cc1N1CCOCC1 → Sa helicase inh: 7.0; MgrA DNA FP: x
Results for CC1CCN(CC(=O)Nc2ccc(F)cc2)CC1 → Sa helicase inh: -3.0; MgrA DNA FP: -24.7
Results for O=C(NC1CCSC1=O)c1ccccc1 (stereo unspecified) → Sa helicase inh: 15.0; MgrA DNA FP: x

The list goes on.
cpd	Sa helicase inh	MgrA DNA FP	canonical_smiles
121	x	3.0	O=S1(=O)CCN(Cc2ccc(OC(F)(F)F)cc2)CC1
122	-14.0	1.2	Cc1ccccc1C(=O)Nc1c(C)[nH]c(=O)[nH]c1=O
123	2.0	x	O=C(CCc1ccccc1)c1ccccc1
124	-20.0	x	Cc1ccccc1NC(=O)c1csc2c1CCCC2
125	-19.0	x	O=C(O)CNS(=O)(=O)c1cccc(C(F)(F)F)c1
126	-4.0	x	Cn1ccc(NC(=O)NC(=O)c2c(Cl)cccc2Cl)n1
127	x	-1.0	CSC1=NCCN1S(=O)(=O)c1ccc(Cl)cc1

Screening results from PubChem BioAssay.

Not all compounds are listed; the hit share may differ from the screen's.
